From PubChem BioAssay
Mtb MbtI inh: inhibitors of Mycobacterium tuberculosis siderophore enzyme MbtI; P9WFX0; purified MbtI enzyme, fluorescence intensity read-out; inhibition, %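 (about 17 µg/mL by stock and volumes)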; hit rate 0.89% among 100,000; AID 493033;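 active means above 50% in both replicates, above 80% if mildly self-fluorescent; inactive means the rest, strongly fluorescent compounds included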;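 further: 0% = mean of negative and 100% = mean of positive controls; one replicate is shown; some compounds called inactive have numbers as strong as hits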
Target sequence (P9WFX0 whole entry, looked up): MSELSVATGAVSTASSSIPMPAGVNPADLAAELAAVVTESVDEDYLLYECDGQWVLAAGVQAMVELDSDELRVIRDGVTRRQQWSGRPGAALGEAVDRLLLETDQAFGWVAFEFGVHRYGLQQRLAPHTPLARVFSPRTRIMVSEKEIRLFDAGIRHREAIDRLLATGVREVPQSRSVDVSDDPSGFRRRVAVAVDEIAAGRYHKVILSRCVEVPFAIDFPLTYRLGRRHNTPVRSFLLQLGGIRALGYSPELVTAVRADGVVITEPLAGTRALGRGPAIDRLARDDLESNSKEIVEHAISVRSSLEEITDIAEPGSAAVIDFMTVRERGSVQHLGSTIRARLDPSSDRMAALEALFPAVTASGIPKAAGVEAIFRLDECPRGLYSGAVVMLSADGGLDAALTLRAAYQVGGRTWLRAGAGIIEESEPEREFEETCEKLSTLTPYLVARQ
Polio RdRp inh: inhibitors of poliovirus RNA polymerase binding and polymerization; poliovirus polymerase elongation, fluorescence polarization; active compounds read low; % elongation, % (compound at 16.7 µg/mL); hit rate 0.66% among 150,000; AID 588519; in the data active means % elongation below about 90%; further: some results filed as inactive read as strong as hits
Target sequence (P03300 1749-2209 limits assumed): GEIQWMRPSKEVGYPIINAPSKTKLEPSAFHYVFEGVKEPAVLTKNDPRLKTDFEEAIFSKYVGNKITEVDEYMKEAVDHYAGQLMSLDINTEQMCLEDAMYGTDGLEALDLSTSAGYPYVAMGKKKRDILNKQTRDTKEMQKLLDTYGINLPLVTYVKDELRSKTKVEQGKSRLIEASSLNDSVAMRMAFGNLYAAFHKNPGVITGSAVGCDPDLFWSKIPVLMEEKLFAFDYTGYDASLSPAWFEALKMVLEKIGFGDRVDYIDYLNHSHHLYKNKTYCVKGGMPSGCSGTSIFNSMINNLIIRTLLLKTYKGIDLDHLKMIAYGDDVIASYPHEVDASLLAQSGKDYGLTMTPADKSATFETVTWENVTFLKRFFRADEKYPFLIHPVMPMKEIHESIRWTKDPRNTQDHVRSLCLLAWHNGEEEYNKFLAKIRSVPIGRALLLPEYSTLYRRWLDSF
MenB inh: inhibitors of Mycobacterium tuberculosis MenB enzyme | P9WNP5 | inhibition, %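 (about 12 µg/mL by stock and volumes)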 | hit rate 0.43% among 100,000 | MenB enzyme assay, absorbance read-out; some hits fall short of the stated cut;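 active means mean of two replicates above 30%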;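 further: 0% = no compound and 100% = wells with inactive enzyme; the first replicate is given; strong numbers were not always called active; inactives centre near -10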
Polio RdRp inh intensity: second read-out of Polio RdRp inh, no call of its own (marks repeat the call); % elongation; measured here: total intensity read-out; formula for this scale not given here;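 total fluorescence in place of polarization; lower means less elongation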
The depositor's hits bear a star; x = no result given.

Labels used below: A = Mtb MbtI inh; B = Polio RdRp inh; C = Polio RdRp inh intensity; D = MenB inh
mol: CCOC(=O)C1=C(CC)Nc2ccccc2N=C1NC(=O)C1CCCO1 (stereo unspecified)
  A: 5; B: x; C: x; D: -13
mol: CN1CC(c2nc3ccccc3[nH]2)CC1=O (stereo unspecified)
  A: -10; B: 101; C: 102; D: 3
mol: CCC1CCCCN1C(=O)CSc1nc2c(c(=O)[nH]1)CCC2 (stereo unspecified)
  A: 18; B: 104; C: 106; D: -13
mol: CCCc1cc(=O)[nH]c(SCc2nc(N)nc(Nc3ccccc3C)n2)n1
  A: 4; B: 108; C: 114; D: -17
mol: CC1CC(=O)CCN1C(=O)c1ccccc1 (stereo unspecified)
  A: -4; B: 98; C: 101; D: 0
mol: CSC1=N/C(=C\c2ccc(Cl)cc2)C(=O)N1CCOc1ccc(Cl)cc1
  A: -5; B: 107; C: 103; D: -7
mol: Cc1cc(C)c(C)c(OCCCSC#N)c1
  A: -5; B: 101; C: 104; D: -30
mol: CCOC(=O)c1ccc(N2C(=O)NC(C(F)(F)F)(C(F)(F)F)C3=C2CC(C)(C)CC3=O)cc1
  A: 3; B: 103; C: 102; D: -24
mol: COc1cc(/C=C2/N=C(c3ccccc3)N(C)C2=O)cc(OC)c1OC
  A: -13; B: 108; C: 115; D: -15
mol: CCOc1ccc(S(=O)(=O)N(C)c2ccc(OCC(=O)N(C)C3CCN(C)CC3)cc2)cc1
  A: -17; B: 106; C: 111; D: -12
mol: CS(=O)(=O)c1ccc(NC(=O)c2ccccc2-n2cnnn2)cc1
  A: 12; B: 102; C: 95; D: -5
mol: O=C(COC(=O)C12CC3CC(CC(O)(C3)C1)C2)Nc1cccc2nsnc12
  A: 8; B: x; C: x; D: -23
mol: NS(=O)(=O)c1ccc(NC(=O)CCC2COc3ccccc3O2)cc1 (stereo unspecified)
  A: -7; B: 99; C: 106; D: -11
mol: CNC(=S)N/N=C(\C)c1ccc(N2CCCCCC2)cc1
  A: -3; B: 100; C: 106; D: -65
mol: O=C(OCc1ccco1)c1sc2ccccc2c1Cl
  A: 57; B: 101; C: 103; D: -8
mol: O=C(CSc1nc2ccccc2o1)N=Nc1c(O)[nH]c2ccccc12
  A: 7; B: 103; C: 101; D: -84
mol: CCCCOCC1CC2(CC(C)(c3csc(N)n3)OC2=O)C(=O)O1 (stereo unspecified)
  A: -2; B: 99; C: 102; D: 15
mol: O=C(NNc1ccc(OC(F)(F)F)cc1)C1CCCCC1
  A: 3; B: 101; C: 102; D: 19
mol: Cc1cc(N/C=C(\C#N)S(=O)(=O)c2ccc(Cl)cc2)nc(C)n1
  A: -12; B: 102; C: 98; D: 4
mol: Cc1ccc(S(=O)(=O)N2CC(=O)N(O)C2c2ccccc2)cc1 (stereo unspecified)
  A: x; B: 101; C: 109; D: -4
mol: Cc1cc(C)c(C)c(S(=O)(=O)NC(C)C)c1C
  A: -16; B: 105; C: 105; D: -13
mol: CCC1CN(C(=O)NCc2ccccc2)c2ccccc2O1 (stereo unspecified)
  A: -9; B: 100; C: 100; D: -4
mol: COCCN1Cc2cccc(C(=O)NCc3cccs3)c2C1=O
  A: -12; B: 99; C: 100; D: 3
mol: CCn1nnc2cc(C(=O)OCC(=O)N(C)Cc3cccc(F)c3)ccc21
  A: 14; B: 105; C: 105; D: 12
mol: N#Cc1c(N)c(C#N)c(-c2ccccc2)c2c1CCCC2
  A: x; B: 108; C: 114; D: -7

The final three records of the section above are carried over, then new ones follow.
Labels used below: A = Mtb MbtI inh; B = Polio RdRp inh; C = Polio RdRp inh intensity; D = MenB inh
mol: COCCN1Cc2cccc(C(=O)NCc3cccs3)c2C1=O
  A: -12; B: 99; C: 100; D: 3
mol: CCn1nnc2cc(C(=O)OCC(=O)N(C)Cc3cccc(F)c3)ccc21
  A: 14; B: 105; C: 105; D: 12
mol: N#Cc1c(N)c(C#N)c(-c2ccccc2)c2c1CCCC2
  A: x; B: 108; C: 114; D: -7
mol: Cc1ccc(C2C(C#N)=C(SCC(=O)N3CCN(Cc4ccccc4)CC3)NC3=C2C(=O)CCC3)cc1 (stereo unspecified)
  A: -10; B: 98; C: 106; D: -22
mol: CC1CCCCC1NS(=O)(=O)c1cccc2nsnc12 (stereo unspecified)
  A: 5; B: 103; C: 104; D: -10
mol: CC(C)(C)NC(=S)Nc1ccccc1C(F)(F)F
  A: -2; B: 100; C: 111; D: -10
mol: O=C(Nc1ccc2c(c1)OCCO2)c1cccc2c1C(=O)N(Cc1cccnc1)C2
  A: 3; B: 103; C: 100; D: 4
mol: CCc1ccc(NC(=NC)c2ccco2)cc1
  A: 4; B: 107; C: 107; D: -10
mol: CCOC(=O)c1cc2nc(Nc3ccc(OC)cc3)sc2s1
  A: -10; B: 103; C: 108; D: -11
mol: O=C(CC(c1cccs1)N1Cc2ccccc2C1=O)NCc1ccc(CN2CCOCC2)o1 (stereo unspecified)
  A: -11; B: 102; C: 104; D: -2
mol: C=CCn1c(C)cc(C(=O)COC(=O)c2oc3ccccc3c2COC)c1C
  A: -20; B: 98; C: 89; D: -23
mol: COc1cc(Br)c(CN(CCc2ccc(O)cc2)C(=O)C(F)(F)F)cc1O
  A: x; B: 103; C: 103; D: -17
mol: COC(=O)c1c(-c2c(Cl)cccc2Cl)noc1NC(=O)NN1CCOCC1
  A: -10; B: 99; C: 96; D: -12
mol: O=C(Nc1ccc(N2CCN(Cc3ccccc3)CC2)cc1)c1ccccc1F
  A: 0; B: 105; C: 104; D: -51
mol: COc1ccc(C(=O)c2ccc(C)cc2)cc1
  A: -8; B: 101; C: 103; D: -22
mol: CC(=O)N1CC(C)Oc2ccc(S(=O)(=O)Nc3ccccc3C)cc21 (stereo unspecified)
  A: -17; B: 103; C: 100; D: -23
mol: CC(C)c1ccc(NC(=O)NCCS(C)=O)cc1 (stereo unspecified)
  A: -4; B: 101; C: 104; D: 9
mol: CNC(=O)Nc1cc(C(F)(F)F)cc(C(F)(F)F)c1
  A: -12; B: 106; C: 101; D: -27
mol: O=C(O)c1cccc(CN2CCN(c3ccccc3)CC2)c1
  A: x; B: 100; C: 104; D: 3
mol: CC(C)NCC(O)COc1ccccc1 (stereo unspecified)
  A: 7; B: 103; C: 105; D: -33
mol: C=CCN(C(=O)Cc1c(C)noc1C)c1nc(-c2ccc(S(C)(=O)=O)cc2)cs1
  A: 109; B: 100; C: 106; D: -20
mol: Cc1n[nH]c(C)c1Br
  A: -7; B: 100; C: 103; D: -9
mol: CN1/C(=C/C(=O)C2CC2)C(C)(C)c2ccccc21
  A: -12; B: 104; C: 106; D: x
mol: Brc1cc(Br)c2ncc(-c3ccc4ccccc4n3)cc2c1
  A: 1; B: 99; C: 100; D: -7
mol: CN(C(=O)c1cccc(S(=O)(=O)N2CCCCC2)c1)c1ccccc1
  A: -4; B: 102; C: 101; D: 3
mol: CC1CN(c2nc3ccccc3nc2SCC(=O)NCCc2ccccc2)CC(C)O1 (stereo unspecified)
  A: -5; B: 104; C: 101; D: -15
mol: COc1ccc(-c2cnnc(N/N=C/c3c(C)[nH]n(-c4ccccc4)c3=O)n2)cc1
  A: -15; B: 102; C: 102; D: -19
mol: O=C(CSc1nc2ccccc2[nH]1)NC1CCCc2ccccc21 (stereo unspecified)
  A: -5; B: 102; C: 106; D: x

A different layout for two compounds above.
Below each compound: Mtb MbtI inh, Polio RdRp inh, Polio RdRp inh intensity, MenB inh
CC(C)c1ccc(NC(=O)NCCS(C)=O)cc1 (stereo unspecified)
 : -4, 101, 104, 9
CNC(=O)Nc1cc(C(F)(F)F)cc(C(F)(F)F)c1
 : -12, 106, 101, -27

Later entries:
Labels used below: A = Mtb MbtI inh; B = Polio RdRp inh; C = Polio RdRp inh intensity; D = MenB inh
mol: C/C(=N/NC(=O)CC1N=C(Cc2ccccc2)NNC1=O)c1ccco1 (stereo unspecified)
  A: 13; B: 101; C: 99; D: -26
mol: Cc1ccc2cc3c(N)nn(C(=O)c4ccccc4F)c3nc2c1
  A: -3; B: 103; C: 107; D: -20
mol: c1ccc2[nH]c(CN3CCCCC3)nc2c1
  A: 2; B: 102; C: 105; D: -21
mol: CC(=O)Nc1nnc(CCS(=O)(=O)c2ccc(C)cc2)s1
  A: 2; B: 102; C: 110; D: -35
mol: COc1cccc2cc(C#N)c(=N)oc12
  A: 0; B: 105; C: 97; D: 7
mol: COc1cccc(CNC(=O)c2cccc(S(=O)(=O)N3CC(C)OC(C)C3)c2)c1 (stereo unspecified)
  A: 1; B: 105; C: 104; D: -18
mol: O=c1oc2ccccc2cc1-c1nc(-c2ccc(C(F)(F)F)cc2)no1
  A: -17; B: 101; C: 103; D: -26
mol: COc1ccc(CNC(=O)C(OC(=O)c2ccco2)c2ccc(C)cc2)cc1 (stereo unspecified)
  A: -9; B: 101; C: 103; D: 16
mol: COC(=O)CNC(=O)c1cn(CC(C)C)c(=O)c2cc(OC)c(OC)cc12
  A: -26; B: 96; C: 91; D: -4
mol: Cc1cnc(C(=O)OC(C)C(=O)Nc2cccc(C(F)(F)F)c2)cn1 (stereo unspecified)
  A: 2; B: 101; C: 99; D: -3
mol: CCn1c(=O)c(-c2[nH][nH]c(=O)c2/C=N/c2nccs2)c(O)c2ccccc21
  A: x; B: 99; C: 98; D: -79
mol: Cc1cc(=O)oc2cc(OC(=O)c3cc(F)c(F)c(F)c3F)ccc12
  A: -107; B: 104; C: 110; D: -23
mol: O=C(CCCn1c(=O)[nH]c2ccccc2c1=O)NCCc1ccccc1
  A: 14; B: 103; C: 100; D: -6
mol: CCN(CC)CCn1c(NCc2ccncc2)nc2ccccc21
  A: 2; B: 100; C: 101; D: -23
mol: N#Cc1ccc(CN2CCN(CC(=O)NC(=O)Nc3ccccc3F)CC2)cc1
  A: 17; B: 101; C: 103; D: 6
mol: CCOc1ccccc1NC(=O)COC(=O)CCc1nc(=O)c2ccccc2n1C
  A: -12; B: x; C: x; D: -5
mol: Cn1c(=O)c2nc(NCc3ccccc3)cnc2n(C)c1=O
  A: -19; B: 99; C: 97; D: -3
mol: N#CC1=C(N)Nc2c(oc(CO)cc2=O)C1c1conc1-c1ccc(F)cc1 (stereo unspecified)
  A: 4; B: 101; C: 106; D: 2
mol: Cc1ccc(OCC(=O)Nc2ccc(N3CCOCC3)cc2)c(-n2nc3ccccc3n2)c1
  A: x; B: 107; C: 109; D: -9
mol: COC(=O)c1ccccc1-n1cnc2ccccc2c1=O
  A: -8; B: 100; C: 103; D: -3
mol: CC1=NCCN1CCNC(=O)Nc1cc(C)cc(C)c1
  A: -1; B: 110; C: 110; D: -21
mol: COC(=O)c1cc(CCl)oc1C
  A: 3; B: 105; C: 99; D: x
mol: CN1/C(=C\C(=S)NC(=O)c2ccco2)C(C)(C)c2ccccc21
  A: 21; B: 110; C: 103; D: -187
mol: COC(=O)Cn1cnc2sc(-c3ccccc3)cc2c1=O
  A: x; B: 104; C: 107; D: 0
mol: CN(C)C(CNC(=O)c1ccc(S(=O)(=O)N(C)C)cc1)Cc1ccccc1 (stereo unspecified)
  A: -49; B: 101; C: 103; D: -35
mol: CCCCCn1c(=O)c(C(=O)Nc2ccccc2S(N)(=O)=O)c(O)c2ccccc21
  A: -46; B: 102; C: 101; D: -8
mol: CC1CCc2ccccc2N1S(=O)(=O)c1ccc(CCC(=O)O)cc1 (stereo unspecified)
  A: -10; B: 104; C: 102; D: -7
mol: CSc1nc2ccccc2c(=O)n1-c1ccccc1
  A: 3; B: 102; C: 99; D: x
mol: Brc1ccc2nc(N3CCCC3)sc2c1
  A: -5; B: 103; C: 102; D: -3
mol: O=C(C1CC(c2ccc(Cl)cc2)=NO1)N1CCCC1 (stereo unspecified)
  A: -1; B: 103; C: 102; D: 22
mol: Cc1ccc(NC(=O)CCn2c(=O)sc3ccccc32)cc1C
  A: -12; B: 103; C: 103; D: -23
mol: CC(C)(C)Nc1cccccc1=NCc1ccccc1
  A: 6; B: 94; C: 109; D: -84
mol: CC1(C)CC2CC(C)(CN2C(=O)Cc2ccccc2)C1 (stereo unspecified)
  A: -4; B: 99; C: 100; D: 19
mol: Cc1cccc(C(=O)OC(C)C(=O)NCC2CCCCC2)c1O (stereo unspecified)
  A: -9; B: 105; C: 106; D: 6
mol: CCOC(=O)c1[nH]c(COC(=O)c2ccc3c(c2)OCO3)c(C(=O)OCC)c1C
  A: -3; B: 104; C: 124; D: -8
mol: Cc1ccc2c(CC(=O)OC(C)C(=O)Nc3ccc4c(c3)OCCO4)coc2c1 (stereo unspecified)
  A: -9; B: 102; C: 102; D: -27
mol: N#C/C(=C/c1ccccc1)C(=O)Nc1ccc(O)cc1
  A: 7; B: 99; C: 103; D: -15
mol: CCOC(=O)C1CCCN(C(=O)CCS(=O)(=O)Cc2ccccc2)C1 (stereo unspecified)
  A: -10; B: 101; C: 102; D: -54

Two entries from above, reformatted.
Below each compound – Mtb MbtI inh	Polio RdRp inh	Polio RdRp inh intensity	MenB inh
CCC1CN(C(=O)NCc2ccccc2)c2ccccc2O1 (stereo unspecified)
  -9	100	100	-4
COCCN1Cc2cccc(C(=O)NCc3cccs3)c2C1=O
  -12	99	100	3
